Ecoli rRNA inh – inhibits bacterial ribosomal RNA function over humanized ribosomes; E. coli WT GFP vs humanized-ribosome RFP mutants, fluorescence, 24 h; active compounds read low; DMSO median 0, no signal -100; GFP signal change (wild-type ribosome), % (no concentration beside the values); 1.6% of 350,000 active;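 active = significant combined selectivity score with lowered wild-type GFP, culture density cut under 30%, mutant RFP and density less affected; inactive = any of these conditions unmet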; note: one replicate is shown; some compounds called inactive have numbers as strong as hits
Ecoli rRNA inh OD600 – also measured in Ecoli rRNA inh; calls as there; OD600 change, %; measured here: OD600 growth;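 optical density of the mix in the first replicate; 0 = DMSO median and -100 = no signal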
Ecoli rRNA inh RFP – recorded beside Ecoli rRNA inh, whose call it bears; RFP signal change, %; measured here: RFP humanized mutant strains;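 first replicate; 0 = DMSO median and -100 = no signal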
Starred values were filed as active, the others as inactive.

SMILES	Ecoli rRNA inh	Ecoli rRNA inh OD600	Ecoli rRNA inh RFP
COc1ccc(-c2nc3ccc(C)cn3c2CC2CCCCC2)cc1OC	-29.4*	-18.5*	-3.0*
COCCN1Cc2cc(C(=O)OC)c3c(c2C1=O)c1cc(OC)ccc1n3S(=O)(=O)c1ccc(C)cc1	5.8	4.6	5.4
C[C@H]1CN([C@@H](C)CO)C(=O)c2cccc(NC(=O)c3cnccn3)c2O[C@@H]1CN(C)S(=O)(=O)c1ccc(Cl)cc1	-4.0	-0.1	-0.5
Cc1ccc(S(=O)(=O)Nc2ccc3c(c2)C(=O)N([C@@H](C)CO)C[C@H](C)[C@@H](CN(C)Cc2ccc(C(=O)Nc4ccccc4N)cc2)OCCCC[C@@H](C)O3)cc1	2.2	-0.3	6.0
c1ccc(OC2CCCCC2N2CCOCC2)cc1 (stereo unspecified)	12.7	15.9	-2.7
C[C@@H]1CN([C@@H](C)CO)C(=O)c2cc(NC(=O)CCCN(C)C)ccc2O[C@@H]1CN(C)S(C)(=O)=O	3.0	-0.6	2.2
COC(=O)C1=C(C)N(Cc2ccc(C(F)(F)F)cc2)C(=NCc2ccc(OC)cc2)NC1c1ccccc1 (stereo unspecified)	-58.5	-80.4	-20.1
O=C1NC[C@H](CCCCN2C[C@H](Cc3ccccc3)N(CC3CCCCC3)C(=O)C2=O)N(CC2CCCCC2)C1=O	14.9	1.8	6.7
CCCC(=O)Nc1ccc2c(c1)C(=O)N(C)C[C@H](OC)[C@@H](C)CN(Cc1cccc(F)c1)[C@H](C)CO2	-4.7	-14.2	2.9
COc1ccc2c3c([nH]c2c1)[C@@H](CO)N(CC1CC1)CC31CN(C(=O)C2CCOCC2)C1	3.5	7.2	-2.1
O=S(=O)(c1ccccc1)N1CCCCN2[C@H](CO)[C@@H](c3ccc(-c4cncnc4)cc3)[C@H]2C1	-1.3	9.4	-3.6
CC(C)(C)n1nnnc1C1c2ccccc2C(=O)N1CCc1c[nH]c2ccccc12 (stereo unspecified)	-15.1	-17.3	-5.7
CCCNC(=O)c1cc(C2CCCCN2S(=O)(=O)c2cccc3cccnc23)on1 (stereo unspecified)	0.3	6.4	1.3
OC[C@@H]1[C@H](c2ccccc2)C2(CN(Cc3nccs3)C2)N1Cc1cccnc1	4.6	5.5	-0.4
CC(=O)c1cccc(-c2ccnc3c2CC(C(=O)Nc2cccc(OC(F)(F)F)c2)O3)c1 (stereo unspecified)	-3.8	-34.3	13.2
CCC(=O)N(C)C[C@H]1Oc2cc(-c3ccccc3C)ccc2S(=O)(=O)N([C@@H](C)CO)C[C@H]1C	2.9	10.1	-1.2
C[C@H]1CN([C@@H](C)CO)C(=O)Cc2cc(NC(=O)C3CC3)ccc2O[C@H]1CN(C)S(=O)(=O)c1ccc(F)cc1	3.3	4.5	0.5
Cc1nc(C(F)(F)F)ccc1C(=O)N1CCC1(C)C(=O)NS(C)(=O)=O (stereo unspecified)	12.2	5.5	3.0
N#Cc1ccc(-c2ccc3c(c2)[C@@H]2[C@@H](CCN2C(=O)C2CCCC2)[C@H](CO)N3)cc1	-34.9	-49.2	23.2
CCCCN(C=O)c1c(CC)nc2ccc(C(=O)NCCCN3CCCC3=O)cn12	-4.0	0.9	-3.9
CCS(=O)(=O)N1CC(=O)N2[C@H](CO)[C@@H](c3ccc(C#CC4CCCC4)cc3)[C@H]2C1	2.7	-1.9	-1.1
N#C[C@@H]1[C@@H](c2ccc(-c3cccnc3)cc2)[C@H](CO)N1C(=O)Nc1ccc(F)cc1	-3.9	1.5	4.2
CCC(=O)N(C)C[C@@H]1Oc2ncc(C#Cc3ccccc3)cc2C(=O)N([C@H](C)CO)C[C@H]1C	-5.5	-2.3	-1.1
C[C@H]1CN([C@@H](C)CO)C(=O)Cc2cc(NC(=O)C3CCCCC3)ccc2O[C@@H]1CN(C)C(=O)NC1CCCCC1	0.0	7.7	-0.1
C[C@H](CO)N1C[C@H](C)[C@H](CN(C)C(=O)Nc2ccc(C(F)(F)F)cc2)OCCCC[C@H](C)Oc2ccc(NS(C)(=O)=O)cc2C1=O	-7.6	-11.9	0.7
CCNC(=O)C[C@@H]1C=C[C@@H](NC(=O)C2CCOCC2)[C@H](CO)O1	4.2	9.5	0.4
C[C@@H]1CN([C@@H](C)CO)C(=O)c2cc(-c3cccc(C#N)c3)cnc2O[C@@H]1CN(C)Cc1cncnc1	5.8	17.6	-3.7
Cc1noc(C)c1S(=O)(=O)N(C)C[C@@H]1OCCCC[C@H](C)Oc2ccc(NS(=O)(=O)c3ccccc3)cc2C(=O)N([C@@H](C)CO)C[C@H]1C	-1.3	-3.4	1.8
O=C(C[C@H]1C[C@H]2c3cc(NC(=O)C4CCOCC4)ccc3O[C@H]2[C@@H](CO)O1)NCc1ccccc1	3.8	4.1	-1.4
CC1CCN(C(=O)c2ncn3c2c(=O)[nH]c2cccnc23)CC1	21.8	17.9	0.3

Some of these compounds in order of molar mass, largest number first.
SMILES	Ecoli rRNA inh	Ecoli rRNA inh OD600	Ecoli rRNA inh RFP
C[C@H](CO)N1C[C@H](C)[C@H](CN(C)C(=O)Nc2ccc(C(F)(F)F)cc2)OCCCC[C@H](C)Oc2ccc(NS(C)(=O)=O)cc2C1=O	-7.6	-11.9	0.7
C[C@H]1CN([C@@H](C)CO)C(=O)Cc2cc(NC(=O)C3CCCCC3)ccc2O[C@@H]1CN(C)C(=O)NC1CCCCC1	0.0	7.7	-0.1
C[C@@H]1CN([C@@H](C)CO)C(=O)c2cc(-c3cccc(C#N)c3)cnc2O[C@@H]1CN(C)Cc1cncnc1	5.8	17.6	-3.7
O=C(C[C@H]1C[C@H]2c3cc(NC(=O)C4CCOCC4)ccc3O[C@H]2[C@@H](CO)O1)NCc1ccccc1	3.8	4.1	-1.4

The results go on.
SMILES	Ecoli rRNA inh	Ecoli rRNA inh OD600	Ecoli rRNA inh RFP
COc1ccc(-c2ccc3c(n2)CCCN3S(=O)(=O)c2ccccc2C)cc1	1.4	5.6	0.4
CCCCNC(=O)c1nc(C2CCN(S(=O)(=O)c3c(F)cccc3F)CC2)oc1-c1cccc(C(F)(F)F)c1	2.5	17.5	2.4
C[C@@H]1CCCCO[C@@H](CN(C)Cc2ccc(C(F)(F)F)cc2)[C@H](C)CN([C@H](C)CO)C(=O)c2cc(NC(=O)Nc3ccc4c(c3)OCO4)ccc2O1	-6.9	-3.6	2.8
O=C(C[C@@H]1C=C[C@H](NC(=O)Nc2ccc3c(c2)OCO3)[C@H](CO)O1)NCCCN1CCOCC1	2.7	6.1	1.2
CCCNC(=O)N1[C@@H]2c3ccc(-c4cccc(OC)c4)c(=O)n3C[C@H]1[C@H](CO)[C@H]2C(=O)NC1CCC1	0.0	0.5	-2.5
CCNC(=O)C[C@H]1CC[C@@H]2[C@H](COC[C@@H](O)CN2C(=O)c2cc(Cl)cc(Cl)c2)O1	3.4	3.3	6.6
CC(C)CC#Cc1cnc2c(c1)C(=O)N([C@H](C)CO)C[C@@H](C)[C@H](CN(C)C(=O)c1cccnc1)O2	1.5	-6.3	-4.0
C[C@@H]1CN([C@@H](C)CO)C(=O)Cc2cc(NC(=O)Nc3ccc(F)cc3)ccc2O[C@@H]1CN(C)Cc1ccc(Oc2ccccc2)cc1	5.8	-0.3	2.7
COCC(=O)N1CCCC(C)(C(=O)Nc2cccc(Oc3ccccc3)c2)C1 (stereo unspecified)	12.9	13.2	0.8
Cc1noc(C)c1NC(=O)N(C)C[C@@H]1Oc2ccc(NC(=O)C3CC3)cc2CC(=O)N([C@@H](C)CO)C[C@@H]1C	3.1	-2.6	-2.2
COc1cc(CNc2ncnc3c2ncn3[C@H]2CN(Cc3ccc(-c4ccccc4)cc3)C[C@@H](CO)O2)cc(OC)c1OC	-2.0	0.1	1.8
C[C@H]1CN([C@@H](C)CO)C(=O)c2cc(NC(=O)CCCN(C)C)ccc2O[C@@H]1CN(C)S(=O)(=O)c1ccccc1	1.9	5.7	-0.7
C[C@H]1CN([C@@H](C)CO)S(=O)(=O)c2ccc(-c3cccc(C#N)c3)cc2O[C@@H]1CN(C)C(=O)c1cccnc1	-0.8	-1.2	0.8
CO[C@H]1CN(C)C(=O)c2cc(NC(=O)C3CC3)ccc2OC[C@@H](C)N(CCc2ccccc2)C[C@@H]1C	-6.0	-15.6	4.0
C[C@H](CO)N1C[C@H](C)[C@H](CN(C)Cc2ccc(F)cc2)Oc2ncc(C3=CCCC3)cc2C1=O	-1.7	-5.3	-1.3
O=C(NC1CCCC1)N[C@H]1CC[C@@H](CC(=O)N2CCOCC2)O[C@H]1CO	2.0	2.0	-0.6
C[C@@H]1CN([C@H](C)CO)C(=O)c2cccc(NS(=O)(=O)c3ccc(Cl)cc3)c2O[C@H]1CN(C)S(=O)(=O)c1cccs1	-8.8	-16.3	-1.4
C[C@H](CO)N1C[C@H](C)[C@H](CN(C)C(=O)c2cccnc2)Oc2ncc(Br)cc2C1=O	4.5	-1.5	-1.4
C[C@@H]1CN([C@@H](C)CO)C(=O)Cc2cc(NC(=O)CCCN(C)C)ccc2O[C@H]1CN(C)Cc1ccncc1	0.7	4.1	-1.6
C[C@H]1CN([C@@H](C)CO)C(=O)c2ccccc2-c2ccccc2CO[C@@H]1CN(C)S(=O)(=O)c1ccsc1	13.2	-3.7	-4.9
Nc1ncnc2c1ncn2[C@@H]1O[C@H](C(=O)N2CCC[C@@H]2C(=O)OCc2ccccc2)[C@@H](O)[C@H]1O	14.7	4.0	0.4
Cc1ccccc1C#CC1=CC(=O)CC(C)(C)C1	1.2	2.1	0.6
CCN(CC)C(=O)C1=C(C)N(CCC2=CCCCC2)C(=O)C(CC(=O)NCCc2ccccn2)C1 (stereo unspecified)	-2.6	-2.8	0.3
OC(c1ccccc1)c1nc(-c2csc3ccccc23)cs1 (stereo unspecified)	5.4	13.4	2.6
C=C(C)C[C@H]1CCn2cc(nn2)COCCNC1=O	-0.8	2.0	-0.7
N#C[C@@H]1[C@H](c2ccc(C#CC3CCCCC3)cc2)[C@@H](CO)N1C(=O)Cc1ccccn1	-45.5	-64.7	-5.6
C[C@@H](NC(=O)C[C@H]1CC[C@H]2[C@@H](COC[C@H](O)CN2C)O1)c1ccccc1	-1.7	-1.8	1.5
Cc1ccc(S(=O)(=O)N(C)C[C@@H]2Oc3c(NC(=O)CCCCCC(=O)Nc4ccccc4N)cccc3C(=O)N([C@H](C)CO)C[C@@H]2C)cc1	-6.6	-9.9	-0.4
COc1ccc2c3c([nH]c2c1)[C@@H](CO)N(C(C)=O)CC31CCN(S(=O)(=O)c2ccccc2)CC1	-7.2	-18.6	1.3
C[C@H]1CN([C@@H](C)CO)S(=O)(=O)c2ccc(C#Cc3ccccc3)cc2O[C@@H]1CN(C)C(=O)c1ccccn1	-31.9	-60.5	27.7
CC(C)NC(=O)N(C)C[C@H]1Oc2cc(-c3cccnc3)ccc2S(=O)(=O)N([C@H](C)CO)C[C@H]1C	2.5	11.7	-3.8
COCCN(CCOC)Cc1cc(=O)oc2ccc3ccccc3c12	1.5	-9.9	7.1
Cc1cccc(C)c1NC(=O)C(c1ccccc1OC(F)(F)F)N1CCN(C/C=C/c2ccccc2)CC1 (stereo unspecified)	-17.4	-37.4	22.8
C[C@H](CO)N1C[C@H](C)[C@H](CN(C)CC2CCCCC2)Oc2cc(C3=CCCC3)ccc2S1(=O)=O	3.9	-16.8	16.7
CC(C)NC(=O)N1C[C@@H]2[C@H](c3ccccc31)[C@@H](CO)N2C(=O)c1cccnc1	-1.7	0.3	-4.1
CC(=O)c1cc2c(cc1C)CCCC2(C)C	12.7	16.3	1.5
CCC(=O)NC[C@@H]1[C@@H](c2ccc(-c3ccc(F)cc3)cc2)[C@@H](CO)N1C(=O)CC	-5.0	-7.6	0.1
CCCNC(=O)N(C)C[C@H]1Oc2ncc(C#C[C@H](C)O)cc2C(=O)N([C@@H](C)CO)C[C@H]1C	7.0	12.9	-1.2
Cn1ccc2c(-c3ccc(CO)cc3)cc3c(c21)C1CCC3O1 (stereo unspecified)	-15.2	-14.9	1.8
C[C@@H]1CN([C@@H](C)CO)C(=O)c2cc(NS(=O)(=O)c3ccc(Cl)cc3)ccc2O[C@@H](C)CCCCO[C@@H]1CN(C)C(=O)NC1CCCCC1	-0.5	-3.5	1.7
C[C@@H]1CN([C@@H](C)CO)C(=O)c2cc(-c3ccc(F)cc3)cnc2O[C@H]1CN(C)C(=O)c1ccc(F)cc1	-0.7	-4.1	-3.6
COc1ccc2c3c(n(C)c2c1)[C@H](CO)N(S(C)(=O)=O)CC31CCN(C(=O)C2CCCC2)CC1	-2.1	-3.1	1.9
COc1ccc(C(=O)Nc2ccc3c(c2)C(=O)N(C)C[C@@H](OC)[C@@H](C)CN[C@H](C)CO3)cc1	-2.3	-0.7	0.7
C[C@@H]1CN([C@H](C)CO)S(=O)(=O)c2ccc(Br)cc2O[C@H]1CN(C)C(=O)c1ccc2c(c1)OCO2	-1.3	-0.5	-1.2
CCCC#Cc1ccc([C@H]2[C@@H](CO)N3C(=O)CN(C(=O)CN4CCOCC4)C[C@@H]23)cc1	3.3	9.8	-4.5

Shown with two lines to a compound: part of the list above.
Each structure is followed by: Ecoli rRNA inh, Ecoli rRNA inh OD600, Ecoli rRNA inh RFP
> COc1ccc2c3c(n(C)c2c1)[C@H](CO)N(S(C)(=O)=O)CC31CCN(C(=O)C2CCCC2)CC1
→ -2.1, -3.1, 1.9
> COc1ccc(C(=O)Nc2ccc3c(c2)C(=O)N(C)C[C@@H](OC)[C@@H](C)CN[C@H](C)CO3)cc1
→ -2.3, -0.7, 0.7
> C[C@@H]1CN([C@H](C)CO)S(=O)(=O)c2ccc(Br)cc2O[C@H]1CN(C)C(=O)c1ccc2c(c1)OCO2
→ -1.3, -0.5, -1.2
> CCCC#Cc1ccc([C@H]2[C@@H](CO)N3C(=O)CN(C(=O)CN4CCOCC4)C[C@@H]23)cc1
→ 3.3, 9.8, -4.5

Assay outcomes: PubChem BioAssay, Broad Institute

Some of the compounds tested; rates above refer to the full screens.
